PABP polyA inh – blocks human PABP binding to poly(A) RNA | P11940 | fluorescence polarization | inhibition, % at 35 µM | 290,000 tested, 1% active;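 active means 50% or more with normal probe brightness, or confirmed in later tests; inconclusive means above 50% with abnormal brightness, or retests that disagree; inactive means below 50% or failed in later tests; about a fifth of its hits are not listed in these tables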;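 further: calls also rest on retests at 20 µM and on dose response follow-up; controls were probe without protein and protein plus probe with vehicle; some compounds called inactive have numbers as strong as hits; many hits fall short of the cut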
Target sequence (P11940 whole entry, looked up): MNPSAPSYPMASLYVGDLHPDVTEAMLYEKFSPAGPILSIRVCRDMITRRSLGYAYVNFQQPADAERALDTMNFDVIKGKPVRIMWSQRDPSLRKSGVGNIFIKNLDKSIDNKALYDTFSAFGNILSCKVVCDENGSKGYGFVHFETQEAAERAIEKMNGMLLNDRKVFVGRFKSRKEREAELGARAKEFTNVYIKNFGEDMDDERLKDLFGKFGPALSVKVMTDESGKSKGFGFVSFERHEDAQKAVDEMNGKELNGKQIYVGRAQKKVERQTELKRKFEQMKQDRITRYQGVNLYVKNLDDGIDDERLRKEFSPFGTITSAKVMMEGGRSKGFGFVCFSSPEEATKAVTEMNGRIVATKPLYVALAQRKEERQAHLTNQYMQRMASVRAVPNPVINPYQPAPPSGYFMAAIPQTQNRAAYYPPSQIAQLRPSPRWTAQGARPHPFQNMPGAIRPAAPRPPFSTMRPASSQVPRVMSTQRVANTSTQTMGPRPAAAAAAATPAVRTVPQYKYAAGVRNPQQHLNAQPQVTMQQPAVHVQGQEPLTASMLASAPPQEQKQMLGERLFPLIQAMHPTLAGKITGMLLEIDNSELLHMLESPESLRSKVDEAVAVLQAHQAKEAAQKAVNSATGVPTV
eIF4H FP inh – inhibitors of RNA binding by human eIF4H. eIF4H fluorescence polarization binding assay. 290,000 tested, 0.94% active. inhibition, % at 35 µM;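 active means 50% or more with normal probe brightness, or confirmed in later tests; inconclusive means above 50% with abnormal brightness, or retests that disagree; inactive means below 50% or failed in later tests; about a fifth of its hits are not listed in these tables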;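 further: calls also rest on retests at 20 µM and on dose response follow-up; 0% = protein and probe with vehicle and 100% = probe without protein; strong numbers were not always called active; many hits fall short of the cut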
MT1-MMP act inh – MT1-MMP (human) activation inhibition | GFP/RFP ratio change, % at 20 µM | AID 651647 | 360,000 tested, 0.061% active | P50281 | HT1080 RFP-PRO-GFP cells, GFP/RFP ratio fluorescence, overnight; percent of plate control window, DMSO zero;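 active means GFP/RFP ratio change of at least 30% with cell ATP level not reduced by more than half and red fluorescence within 50% of control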; further: strong numbers were not always called active
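Material: RFP-PRO-GFP reporter HT1080 cells. Dosing: single-point 20 µM compound, 1% DMSO. Controls: DMSO and RFP-L50D-GFP cell wells. Timing: cells overnight before dosing, compound overnight, 37 °C, 5% CO2. Measure: GFP/RFP fluorescence ratio.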
Env fusion inh – inhibitors of HIV Env-mediated cell fusion | HeLa-JRFL Env/CEM21 cell fusion, luciferase | inhibition, % at 12.3 µM | 360,000 tested, 1.1% active;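 active means mean replicate inhibition score of at least 50 and every replicate individually at or above 50; inconclusive means only one of the two criteria met; inactive means mean below 50 and not all replicates reaching 50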;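 further: 0% = plate neutral controls and 100% = maraviroc near 300 nM; one replicate is shown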
UUG fidelity – modulators of start codon recognition fidelity in yeast | 350,000 tested, 0.13% active | AID 602363 | S. cerevisiae UUG-firefly luciferase reporter, luminescence/redox ratio | activity score, % at 18.7 µM;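 active means replicate mean at a twofold rise or more, about +100% in these data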;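 further: firefly luciferase made from a UUG start codon reports start codon fidelity; reporter light over untreated wells divided by growth signal over untreated wells; some hits fall short of that in this replicate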
Rce1 inhib – blocks yeast Ras-converting enzyme; Q03530; yeast membranes, quenched prenylated peptide cleavage fluorescence; calls only; 290,000 tested, 0.27% active;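 active means fall in fluorescence gain of 50% or more versus controls, with final raw signal at or below 3038400; inconclusive means same 50% fall but final raw signal above 3038400; inactive means fall in fluorescence gain under 50%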;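 further: plate controls were neutral control wells for no effect and wells lacking membranes for full effect; tested at 10 µM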
CSC inhib – cancer stem cell inhibition; cancer stem cell-like cells viability, luminescence; inhibition, % at 7.5 µM; 300,000 tested, 1.1% active;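 active means mean at 75% or more and at least half the replicates too; inconclusive means mean and replicates disagree; tested in HMLE shEcad cells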;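 further: 0% = median of negative and 100% = median of positive control wells; the first replicate is given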
eIF4H FP inh retest – second read-out of eIF4H FP inh, no call of its own (marks repeat the call); inhibition, %; compound at 20 µM; confirmation average;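 mean of two retest wells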
PABP polyA inh retest – further read-out of PABP polyA inh, marked with its call; inhibition, %; compound at 20 µM; confirmation repeats;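 mean of two retest wells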
MT1-MMP act inh RFP – recorded beside MT1-MMP act inh, whose call it bears; RFP signal change, %; measured here: RFP expression control read;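 0 = vehicle wells; hits needed this value within 50% of zero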
* marks the source's active call; other numbers are inactive results; i = inactive; ? = inconclusive; nt = no result given.

SMILES	PABP polyA inh	eIF4H FP inh	MT1-MMP act inh	MT1-MMP act inh RFP	Env fusion inh	UUG fidelity	Rce1 inhib	CSC inhib	others
COc1ccccc1/C=C1\N=C(C(C)(C)C)OC1=O	2	-12	1	4	1	-17	i	-14
Cc1ccc(-c2c[n+](CC(=O)Nc3ccccc3C)c3n2CCC3)cc1	2	-7	-1	2	-3	nt	i	-6
Cc1cccc(CSCCNC(=O)c2ccc(N(C)S(=O)(=O)c3ccccc3)cc2)c1	-11	16	4	-4	5	-6	i	32
CCOC(=O)C1CCN(C(=O)CCc2c(C)nc3c(-c4ccc(F)cc4)c(C)nn3c2C)CC1	4	-4	2	1	6	28	i	0
Cc1ccc([N+](=O)[O-])cc1NC(=S)NC(=O)C(C)(C)C	-9	-11	-1	1	nt	-26	i	0
CN1CCN(C(=O)c2cnc(Cc3c[nH]c4ccccc34)c(I)c2)CC1	nt	nt	3	2	4	-10	nt	nt
CCCCc1nc(SCC(=O)N2CCCCC2)c2c(=O)n(C)c(=O)n(C)c2n1	nt	nt	-1	0	17	1	i	-9
CCOc1ccccc1N(CC(=O)Nc1ccccc1C(=O)N1CCCC1)S(C)(=O)=O	-8	-10	-2	2	2	-6	i	-4
CS(=O)(=O)N1CCCC(C(=O)Nc2ccccc2Cl)C1 (stereo not drawn)	2	5	0	6	10	-19	i	-10
Cc1nc2ccccc2n1S(=O)(=O)c1cc(C(=O)O)ccc1Cl	-2	-10	0	0	-5	-11	i	-2
O=[N+]([O-])c1ccc(Cl)c(CN2CCN(c3ncccn3)CC2)c1	16	-16	-1	-2	-4	-6	i	2
CCOc1ccc(NS(=O)(=O)c2cc(C)c(C)cc2C)cc1	-8	0	0	-6	10	nt	i	-5
CN(C)C1(CNC(=O)c2cccc(S(=O)(=O)Nc3ccc(Br)cc3)c2)CCCCC1	nt	nt	3	-5	-18	-18	i	1
Nc1cc(-c2nc3ncccc3o2)ccc1Cl	3	-4	6	6	nt	-23	i	-2
O=C(CN1C(=O)NC2(CCCC2)C1=O)Nc1ccc(F)c(F)c1F	2	-2	2	3	-20	nt	i	-10

Grouped by structure: the entries above containing a nitro group on carbon
SMILES	PABP polyA inh	eIF4H FP inh	MT1-MMP act inh	MT1-MMP act inh RFP	Env fusion inh	UUG fidelity	Rce1 inhib	CSC inhib	others
Cc1ccc([N+](=O)[O-])cc1NC(=S)NC(=O)C(C)(C)C	-9	-11	-1	1	nt	-26	i	0
O=[N+]([O-])c1ccc(Cl)c(CN2CCN(c3ncccn3)CC2)c1	16	-16	-1	-2	-4	-6	i	2

Following part:
SMILES	PABP polyA inh	eIF4H FP inh	MT1-MMP act inh	MT1-MMP act inh RFP	Env fusion inh	UUG fidelity	Rce1 inhib	CSC inhib	others
Cn1c(SCc2cc(=O)[nH]c3ccccc23)nnc1-c1ccc(Br)cc1	10	9	5	1	-66	-15	nt	-15
O=C(NCC1CCCO1)c1ccc(-c2cccc(C(F)(F)F)c2)o1 (stereo not drawn)	-4	-12	-2	-1	-5	-7	i	nt
Cc1ccc2nc(COC(=O)c3ccc(Cl)nc3)cc(=O)n2c1	nt	nt	3	-2	4	-8	nt	0
Cn1c(=O)[nH]c(=O)c2c1nc(SCCC(=O)O)n2Cc1cccc(Br)c1	-12	2	-1	4	-12	-13	i	-8
Cc1noc(C)c1C(=O)NCc1cccs1	-5	-7	-1	-3	nt	nt	i	-3
Cc1ccc(NC(=O)CCC(=O)NNS(=O)(=O)c2ccc(Cl)cc2)cc1C	3	-10	-4	-2	5	-9	i	-12
CSCCC(NC(=O)c1ccco1)C(=O)Nc1cc(C)ccn1 (stereo not drawn)	nt	nt	0	-2	-92	-22	i	-5
CC(=O)N1c2ccc(C)cc2C(c2ccccc2)CC1C (stereo not drawn)	2	6	7	7	25	-18	nt	9
Cc1ccc(S(=O)(=O)N2CCCC(C(=O)NCc3ccccc3F)C2)cc1 (stereo not drawn)	-5	4	-5	1	-47	-7	i	-14
COC(=O)c1c(C)[nH]c(C(=O)OCC(=O)N(CC(C)C)c2c(N)n(Cc3ccccc3)c(=O)[nH]c2=O)c1C	nt	nt	-2	-1	nt	-5	i	-6
Cn1c(=O)oc2cc(S(=O)(=O)N3CCC4(CC3)OCCO4)ccc21	101*	95*	2	0	-36	-7	i	-10
Cc1ccc(S(=O)(=O)N(C)C)cc1NC(=O)Nc1ccccc1	-13	-1	4	-1	16	nt	i	-11
COc1ccccc1-c1nnc(SCC(=O)Nc2ccc3[nH]c(=O)[nH]c3c2)n1N	nt	nt	4	-6	-25	-17	nt	-11
Cc1cc(C)c(S(=O)(=O)N2CCCC(C(=O)N3CCOCC3)C2)c(C)c1 (stereo not drawn)	-9	-10	-1	1	15	-5	i	-12
COc1ccc(-c2csc(Cc3nnc4n3CCCCC4)n2)cc1	3	4	2	0	nt	-12	i	nt
COC(=O)C(=C/C(C)=C/c1cccnc1)C(=O)OC	-2	-8	-10	-11	8	nt	i	18
CC(C)c1ccc(NC(=O)C2CCN(S(C)(=O)=O)CC2)cc1	-2	-7	3	0	nt	-21	i	-13
CC12CN(C(=S)Nc3ccccc3)CC(C)(CN(C(=S)Nc3ccccc3)C1)C2=O	-10	2	-2	1	37	-31	i	nt
Cc1cc(C)n(/N=C/c2ccco2)c(=O)c1C#N	4	3	2	3	-14	nt	i	0
CCOC(=O)CSc1nnc(Cn2nnc3ccccc32)n1-c1ccc(F)cc1	-10	0	1	0	7	-6	i	-7
COc1ccc(NC(=O)c2cccs2)c([N+](=O)[O-])c1	0	-4	9	8	nt	-22	i	1
O=C(Nc1ccc(Cl)cn1)c1ccc([N+](=O)[O-])o1	6	17	-1	-4	-7	nt	i	nt
Cc1cc(OCCCCCNCCO)cc(C)c1Cl	0	-8	-2	-1	-7	12	i	67
Cc1ccc(OCC(=O)NCCO)c(Br)c1	-7	6	-6	0	11	nt	i	-6
CCOC(=O)N1CCC(NC(=O)C2CCN(S(=O)(=O)N3CCCC3)CC2)CC1	1	-4	-1	1	-29	-14	nt	2
COc1ccc(C(=O)N2CCN(C(C)=O)CC2)cc1S(=O)(=O)NCc1ccc(Cl)cc1	13	-7	1	3	-236	4	i	-6
COc1cc(-c2cc3nc(NCc4cccs4)ccn3n2)cc(OC)c1OC	nt	nt	11	-7	9	-9	nt	nt
NCCCn1c(C(=O)c2cc(Cl)c(N)c(Cl)c2)c2ccccc2[n+]1[O-]	nt	nt	2	4	16	-2	i	-9
CC(C#CCN1CCCCC1)OCCOCc1ccccc1 (stereo not drawn)	-1	-2	-3	0	nt	-6	i	-14
O=c1[nH]c(SCCOc2ccccc2)nc2ccccc12	5	-8	3	-4	-128	-9	i	8
CCOc1ccc(NC(=O)CSc2nnc(Cc3cccn3C)n2-c2ccc(F)cc2)cc1	-14	0	1	-3	12	-20	i	-9
Cc1cccc(OCC(=O)OC(C)C(=O)Nc2ccc(Cl)cn2)c1 (stereo not drawn)	nt	nt	0	4	nt	nt	i	-3
Cc1nc(N)sc1N=Nc1c(C)n(C)n(-c2ccccc2)c1=O	2	-6	-6	-1	-4	-18	i	-5
CCOC(=O)c1c(-c2ccccc2)oc2ccc(OCC(O)CN(C)C)cc12 (stereo not drawn)	-1	0	0	-1	-1	2	i	23
Cc1ccccc1C(=O)N1CCN(c2ccc(N3CCOCC3)nn2)CC1	nt	nt	6	5	-7	-6	i	-2
Cn1c(=O)c2c(nc(CN3CCOCC3)n2Cc2ccccc2)n(C)c1=O	nt	nt	7	8	-33	0	nt	nt
S=C(NCCCc1ccccc1)Nc1ccc(Br)cc1	-18	-9	-2	0	16	-32	i	4
CC(C)c1ccc2[nH]c3nc(SCC(=O)NC4CC4)nnc3c2c1	-1	4	5	-5	2	nt	i	-7
COc1cc(/C=N/NC(=O)c2cc(-c3ccc4c(c3)OCO4)n[nH]2)ccc1O	1	2	9	9	-80	nt	i	75*
CCCCOc1ccc(C(=O)NCC(=O)NCC(c2ccc(F)cc2)N2CCOCC2)cc1 (stereo not drawn)	nt	nt	4	-1	0	nt	i	1
CCC(C)(C(=O)NC1CCCC1)N(C(=O)c1ccccn1)c1ccccc1 (stereo not drawn)	-4	-4	-1	4	15	-3	i	1
OCC1(Cc2ccc(Cl)cc2)CCN(Cc2ccc3nsnc3c2)CC1	-8	-8	3	-1	-3	-15	i	3
COc1ccc(Cl)cc1NC(=S)NCCO	4	1	1	3	3	nt	i	-10
COc1ccccc1C(CNC(=O)c1cccc(S(=O)(=O)N2CCCc3ccccc32)c1)N(C)C (stereo not drawn)	nt	nt	-2	1	-7	-27	nt	nt
CS(=O)(=O)N1CCN(c2ccccc2NC(=O)c2cccs2)CC1	1	-2	4	1	nt	-2	i	-9
CCn1c(=Nc2ccc(N3CCOCC3)cc2)ccc2ccccc21	-7	-6	3	-1	nt	-7	i	0
CC(=O)CCC(=O)N1CCC(n2nccc2NC(=O)c2ccccc2C)CC1	6	12	6	4	-4	-15	i	0
Cc1ccc(Sc2cnn(-c3ccccc3)c(=O)c2Cl)cc1	-3	-8	-11	-12	nt	-14	i	nt
CCCCN1C(=O)C(CC(=O)NCCCN(C)C)CC(C(=O)N(CC)CC)=C1C (stereo not drawn)	nt	nt	1	2	9	-7	nt	nt
COc1ccc(-c2cc(N3CCCC3)n3ncnc3n2)cc1	-5	-11	-9	-11	0	-25	i	-17
CCOc1ccc(OCC)c(Nc2cc(C)nc3ncnn23)c1	1	-5	4	6	-5	-14	i	-1
CC(C)(C)OC(=O)[C@H](Cc1ccccc1)NC(=O)c1nc[nH]c1C(=O)N1CCNCC1	nt	nt	3	2	-10	-23	nt	-2
CCOC(=O)N1N=C(c2ccc(OC)cc2)CC1(O)C(F)(F)F (stereo not drawn)	-2	4	0	5	-8	-25	i	-5
Cc1cc(N2CCCC2)ccc1/C=C1\NC(=S)N(C)C1=O	?	?	-93	5	-182	nt	nt	3
COc1ccc([C@H]2CC(=O)C=C(c3cc(C)ccc3F)C2)cc1	nt	nt	2	-2	-24	-10	nt	27
Cc1ccc(CSC2=Nc3ccccc3C3=NC(=O)CN23)cc1	-5	0	-8	-3	6	nt	i	10
CC(=O)Nc1ccc(C(=O)N2CCCCC2c2cc(C(=O)NCc3ccccc3)no2)cc1 (stereo not drawn)	nt	nt	-1	1	4	18	nt	nt
O=C(CSC1=NCCS1)Nc1nc(-c2ccccc2)cs1	-10	-5	14	2	-104	-6	i	-9
CCOc1cc2[nH]c(=S)n(CC3CCCN3CC)c(=O)c2cc1OCC (stereo not drawn)	1	-12	-4	-8	-37	-15	i	-4
O=C(NCc1ccccc1Cl)C(=O)NCC1OCCN1S(=O)(=O)c1ccc(F)cc1 (stereo not drawn)	-10	-3	4	2	20	-4	i	-6

Later entries
SMILES	PABP polyA inh	eIF4H FP inh	MT1-MMP act inh	MT1-MMP act inh RFP	Env fusion inh	UUG fidelity	Rce1 inhib	CSC inhib	others
C=CCn1c(SCC(=O)c2ccc(Cl)cc2)nnc1-c1ccc2c(c1)OCO2	6	3	3	4	9	nt	nt	6
CC(=O)Oc1ccc(N(C(C)=O)S(=O)(=O)c2ccc3ccccc3c2)cc1	4	-5	11	-8	10	1	i	6
CCC1=Nc2cc(C(=O)NCc3ccco3)ccc2Sc2ccc(C)cc21	55	11	13	-6	-147	-10	i	43	eIF4H FP inh retest=-8;PABP polyA inh retest=2
COc1cc(NC(=O)C2CCN(S(=O)(=O)c3ccc(Cl)cc3)CC2)ccc1-n1cnnn1	-10	-8	0	-8	14	0	i	45
CC(C)(C)NC(=O)Cn1c(SCC(=O)NC2CCCCC2)nc2ccccc21	1	-1	14	-2	-90	-15	i	-25

Screening data: PubChem, several laboratories
